Screening data from PubChem.
Ecoli rRNA inh – inhibitors of bacterial rRNA selective over humanized ribosomes; E. coli WT GFP vs humanized-ribosome RFP mutants, fluorescence, 24 h; active compounds read low; DMSO median 0, no signal -100; GFP signal change (wild-type ribosome), % (concentration not given with the values); 350,000 compounds, 1.6% hits; AID 720706;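 active = significant combined selectivity score with lowered wild-type GFP, culture density cut under 30%, mutant RFP and density less affected; inactive = any of these conditions unmet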; note: one replicate is shown; some compounds called inactive have numbers as strong as hits
FGF22 binding – FGF22 (human) thermal shift binding. Q9HCT0. recombinant FGF22 thermal shift, SYPRO orange fluorescence; percent of sucrose octasulfate shift, DMSO zero. calls only at 9.99 µM. 340,000 compounds, 1.5% hits;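 active = melting point raised past a set limit in the mean and every replicate; three in four hits are not shown here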
Target sequence (Q9HCT0 whole entry, looked up): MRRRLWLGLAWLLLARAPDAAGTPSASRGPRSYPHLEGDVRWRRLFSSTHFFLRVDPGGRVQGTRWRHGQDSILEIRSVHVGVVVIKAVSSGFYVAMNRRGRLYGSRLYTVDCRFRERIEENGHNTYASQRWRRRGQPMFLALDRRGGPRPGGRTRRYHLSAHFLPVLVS
A1 inh – inhibitors of the anti-apoptotic protein A1, read as caspase activation; MEF A1-2A-BIM cells, Caspase-Glo 3/7 luminescence, 3 h; percent of clofoctol response, vehicle zero; caspase activation, % (no concentration beside the values); 330,000 compounds, 0.066% hits;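 active = over half of replicate activation scores above 10%, or exactly half above 10 with the replicate mean above 10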;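 note: wells of about 30 µL received 50 nL stock; many hits fall short of the cut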
UCH37 DUB inh – blocks the human deubiquitinase UCH37; purified proteasome/UCH37, Ub-AMC cleavage fluorescence; inhibition, % (test concentration not listed); 330,000 compounds, 0.33% hits;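 active = mean of two replicates above 20%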;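 note: 0% = compound-free wells with enzyme and 100% = wells lacking proteasome; stock transfer was 100 nL into about 20 µL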
Target sequence (Q9Y5K5 whole entry, looked up): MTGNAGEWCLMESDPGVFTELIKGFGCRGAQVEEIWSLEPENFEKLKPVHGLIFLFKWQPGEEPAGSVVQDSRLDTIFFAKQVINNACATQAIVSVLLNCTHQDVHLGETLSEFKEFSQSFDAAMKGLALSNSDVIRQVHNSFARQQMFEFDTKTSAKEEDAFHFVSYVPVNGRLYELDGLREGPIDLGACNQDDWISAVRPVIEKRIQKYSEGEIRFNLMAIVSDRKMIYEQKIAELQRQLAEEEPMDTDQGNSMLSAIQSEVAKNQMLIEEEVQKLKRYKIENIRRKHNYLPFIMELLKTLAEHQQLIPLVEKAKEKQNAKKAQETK
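Material: human UCH37 enzyme supplied as purified proteasome complex. Measure: % inhibition of Ub-AMC cleavage fluorescence. Medium: pH 7.4 Tris-HCl (50 mM) with ovalbumin, ATP-MgCl2, DTT. Times: 30 min preincubation with enzyme, 25 min cleavage at room temperature. Detection: AMC fluorescence intensity at 355/460 nm.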
T cruzi inh – T. cruzi replication inhibition; T. cruzi beta-gal in NIH3T3, luminescence, 90 h; inhibition, % (no concentration beside the values); 300,000 compounds, 1.4% hits;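 active = mean inhibition across valid replicates above about 55%, limit read from the data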;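 note: signal also drops with host cell toxicity which is not excluded here; 0% = plate median of DMSO wells and 100% = zero luminescence signal; higher percent means less beta-gal luminescence so fewer parasites; stock transfer was 50 nL into about 50 µL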
AF4-AF9 inh – inhibitors of human MLL-AF4/AF9 interaction | inhibition, % at 10 µM | AlphaScreen, biotin-AF4 peptide binding to FLAG-AF9 | 350,000 compounds, 0.47% hits | P42568;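 active = every replicate reaching a set inhibition limit, whatever the replicate mean, cut at about 25% in these data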;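 note: 0% = plate neutral control median and 100% = total signal loss; the record names both 10 and 1 µM as test concentration; the first replicate is given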
Target sequence (P42568 whole entry, looked up): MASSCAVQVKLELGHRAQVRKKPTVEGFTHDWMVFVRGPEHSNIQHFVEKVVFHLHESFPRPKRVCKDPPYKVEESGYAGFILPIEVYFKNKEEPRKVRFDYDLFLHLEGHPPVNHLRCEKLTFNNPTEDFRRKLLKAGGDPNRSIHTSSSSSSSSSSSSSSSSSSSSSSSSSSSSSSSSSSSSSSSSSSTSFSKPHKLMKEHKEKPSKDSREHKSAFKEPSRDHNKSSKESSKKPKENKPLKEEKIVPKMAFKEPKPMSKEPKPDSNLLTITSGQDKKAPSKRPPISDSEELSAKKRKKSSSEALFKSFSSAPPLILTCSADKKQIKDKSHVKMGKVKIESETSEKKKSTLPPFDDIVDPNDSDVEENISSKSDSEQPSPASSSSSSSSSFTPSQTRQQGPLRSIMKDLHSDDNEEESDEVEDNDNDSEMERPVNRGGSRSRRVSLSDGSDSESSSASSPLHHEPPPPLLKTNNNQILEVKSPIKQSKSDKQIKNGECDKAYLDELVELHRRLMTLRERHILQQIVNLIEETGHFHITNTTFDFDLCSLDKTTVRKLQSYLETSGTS
Ecoli growth – E. coli growth inhibition. Escherichia coli growth, OD600, 23 h; active compounds read low. OD600 absorbance (no concentration beside the values). 330,000 compounds, 0.21% hits;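 active = OD600 absorbance below the run mean of sample wells minus 3.6 SD, in any replicate, cut at about 0.56 in these data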;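 note: stock transfer was 300 nL into about 60 µL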
Beta apoptosis – beta cell apoptosis inhibition; protection from apoptosis, % (no concentration beside the values); INS-1E cytokine-induced death, ATP luminescence, 48 h; percent of positive-control rescue, neutral wells zero; 300,000 compounds, 0.8% hits;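 active = all replicates at 75% or more, or half of them and the mean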;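 note: 0% = cytokine-treated negative control wells and 100% = positive control rescue; higher means more ATP so stronger rescue from cytokine killing; wells of about 40 µL received 100 nL stock; the first replicate is given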
Ecoli rRNA inh OD600 – recorded beside Ecoli rRNA inh, whose call it bears; OD600 change, %; measured here: OD600 growth;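 optical density of the mix in the first replicate; 0 = DMSO median and -100 = no signal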
Ecoli rRNA inh RFP – second read-out of Ecoli rRNA inh, no call of its own (marks repeat the call); RFP signal change, %; measured here: RFP humanized mutant strains;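 first replicate; 0 = DMSO median and -100 = no signal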
Active calls of the source: *; i = inactive; . = not tested or not shown; & = joins results of further samples. This is a subset; rates above refer to the full screens.

SMILES	Ecoli rRNA inh	Ecoli rRNA inh OD600	Ecoli rRNA inh RFP	FGF22 binding	A1 inh	UCH37 DUB inh	T cruzi inh	AF4-AF9 inh	Ecoli growth	Beta apoptosis
CCN(c1ccccc1)S(=O)(=O)c1ccc(OC)c(NC(=O)Cc2ccc(F)cc2)c1	-5	-12	3.0	i	-0.7	-0.7	.	-0.1	0.73	-3
O=C(O)c1cccc(Nc2nc(-c3ccc([N+](=O)[O-])cc3)nc3ccccc23)c1	13	24	3.1	i	1.6	3.4	-4	-5.9	0.67	-1
CCN1C(=O)/C(=C2/Sc3ccccc3N2CCCS(=O)(=O)O)SC1=S	14	7	-0.2	i	0.1	1.3&7.7	-4	0.2	0.73&0.7	-7
Cc1csc2nc3ccccc3c(=O)n12	.	.	.	.	-0.6	-95	-11	.	0.67	-6
CCOC(=O)c1ccccc1NC(=O)CSc1cccc[n+]1[O-]	.	.	.	.	-0.1	-3.2	-14	.	0.74	-6
O/N=C\c1cccn1-c1nccs1	19	9	1.6	i	1.3	.	-19	-2.8	.	-6
CCOc1ccc2ccccc2c1/C=N/NC(=O)c1c(C)cc(C)[nH]c1=O	2	0	-2.8	i	0.6	.	14	0.2	.	-7
CCC(=O)N(CCc1ccc(S(N)(=O)=O)cc1)C1CC(=O)N(c2ccc(OC)cc2)C1=O (centres undefined)	6	9	-5.1	i	1.4	4.8	-7	1.3	0.73	-4
C=CCSc1nnc(NC(=O)C2CSC3(C)CCC(=O)N23)s1 (centres undefined)	-3	-9	0.8	i	-0.5	0.6	2	-5.6	0.69	0
COc1cc(/C=C2/C(=O)NN(c3ccc(Cl)cc3)C2=O)ccc1OC(=O)c1ccco1	.	.	.	i	0.1	3.5	6	0.6	0.67	-1
COc1ccc(CNC(=O)CNC(=O)c2ccc(C(C)(C)C)cc2)cc1OC	-1	2	1.8	i	-0.4	3.6	1	-2.7	0.67	2
Cc1cc(C)n2nc(C(=O)OCC(=O)Nc3ccc(C)c(S(=O)(=O)N(C)C)c3)nc2n1	1	6	-0.3	i	0.4	0.2	.	-0.4	0.73	2
C=CCn1cnc2scc(-c3ccc(CC)cc3)c2c1=O	.	.	.	.	2.4	-1.9	-27	.	0.7	3
O=C(N/N=C/c1ccc2c(c1)OCO2)c1cc(-c2ccccc2Cl)nc2ccccc12	7	13	7.6	i	0.3	.	13	-1.9	.	61
CC(=O)c1cccc(NS(=O)(=O)N2CCCCC2)c1	.	.	.	.	0.7	3.9	-4	.	0.71	-3
O=C(Nc1ccc(Br)cc1)c1cc(-c2ccncc2)nc2ccccc12	.	.	.	i	1.2	2.1	.	4.7	0.65	1
O=C(Oc1ccccc1C(=O)N1CCOCC1)c1ccccc1	.	.	.	.	0.7	0.1	-6	.	0.7	4
CC(=O)c1ccccc1N(C(=O)Cn1nnc2ccccc21)C(C(=O)NCC1CCCO1)c1ccc(N2CCOCC2)cc1 (centres undefined)	7	10	-1.3	i	-1.1	4.6	3	-0.6	0.71	11
COc1ccc(C(=O)Nc2nc3cc4c(cc3s2)OCO4)c(OC)c1	7	7	-0.9	i	-1.5	-344	-36	-41	0.7	8
COc1ccc(-c2nc3ccccn3c2CN2CCN(c3ccccc3F)CC2)cc1	-26	-23	8.4	i	0.9	-8.0	52	15	0.72	-5

Whole records from above. Order of values: Ecoli rRNA inh, Ecoli rRNA inh OD600, Ecoli rRNA inh RFP, FGF22 binding, A1 inh, UCH37 DUB inh, T cruzi inh, AF4-AF9 inh, Ecoli growth, Beta apoptosis
O=C(N/N=C/c1ccc2c(c1)OCO2)c1cc(-c2ccccc2Cl)nc2ccccc12 as listed: 7, 13, 7.6, i, 0.3, ., 13, -1.9, ., 61
O=C(Oc1ccccc1C(=O)N1CCOCC1)c1ccccc1 as listed: ., ., ., ., 0.7, 0.1, -6, ., 0.7, 4

Later entries
SMILES	Ecoli rRNA inh	Ecoli rRNA inh OD600	Ecoli rRNA inh RFP	FGF22 binding	A1 inh	UCH37 DUB inh	T cruzi inh	AF4-AF9 inh	Ecoli growth	Beta apoptosis
CCN1CCN(C(=O)/C=C/c2ccc(C(C)C)cc2)CC1	-8	-6	1.7	i	1.2	2.2	-4	3.3	0.64	-2
Cc1sc2ncn(CC(=O)NCCN(C)C)c(=O)c2c1S(=O)(=O)N1CCC(C)CC1	4	4	-2.2	i	0.3	3.0	5	-1.1	0.65	-7
CCN=C1SC(CC(=O)Nc2ccc3c(c2)OCO3)C(=O)N1CC (centres undefined)	17	12	4.9	i	0.0	3.5	-4	-3.6	0.73	1
COc1ccc(N(C)C(=O)CCS(=O)(=O)c2cccc3nonc23)cc1	.	.	.	.	0.5	1.6	-1	.	0.71	-5
Nn1c(Nc2ccccc2)nc2ccccc21	.	.	.	.	-3.7	0.3	-10	.	0.76	8
Cc1cccc2nc(COc3ccc(Cl)c4cccnc34)cn12	-19	-18	-1.4	i	-0.5	0.7	8	4.9	0.71	3
CC1CCN(C(=O)C2CCC(CNS(=O)(=O)c3cccc4cccnc34)CC2)CC1 (centres undefined)	-13	-19	-1.4	i	-0.7	4.9	17	-5.3	0.76	0
CN1CCCNc2nc3ccccc3nc21	14	9	15	i	-0.1	-63	-8	0.3	0.71	-3
Clc1ccccc1/C=N/NC1=Nc2cccc3cccc1c23	17	10	9.7	i	-2.4	.	8	0.0	.	13
Cc1ccc(N(C(=O)c2csnn2)C(C(=O)NC2CCCCC2)c2ccccn2)cc1C (centres undefined)	4	-5	0.0	i	0.2	5.6	8	-1.7	0.66	-3

Some of these compounds in order of molar mass, low to high.
SMILES	Ecoli rRNA inh	Ecoli rRNA inh OD600	Ecoli rRNA inh RFP	FGF22 binding	A1 inh	UCH37 DUB inh	T cruzi inh	AF4-AF9 inh	Ecoli growth	Beta apoptosis
Cc1csc2nc3ccccc3c(=O)n12	.	.	.	.	-0.6	-95	-11	.	0.67	-6
Nn1c(Nc2ccccc2)nc2ccccc21	.	.	.	.	-3.7	0.3	-10	.	0.76	8
O=C(Oc1ccccc1C(=O)N1CCOCC1)c1ccccc1	.	.	.	.	0.7	0.1	-6	.	0.7	4
Cc1cccc2nc(COc3ccc(Cl)c4cccnc34)cn12	-19	-18	-1.4	i	-0.5	0.7	8	4.9	0.71	3
CCOC(=O)c1ccccc1NC(=O)CSc1cccc[n+]1[O-]	.	.	.	.	-0.1	-3.2	-14	.	0.74	-6
COc1ccc(CNC(=O)CNC(=O)c2ccc(C(C)(C)C)cc2)cc1OC	-1	2	1.8	i	-0.4	3.6	1	-2.7	0.67	2
O=C(Nc1ccc(Br)cc1)c1cc(-c2ccncc2)nc2ccccc12	.	.	.	i	1.2	2.1	.	4.7	0.65	1
CCN1C(=O)/C(=C2/Sc3ccccc3N2CCCS(=O)(=O)O)SC1=S	14	7	-0.2	i	0.1	1.3&7.7	-4	0.2	0.73&0.7	-7
COc1cc(/C=C2/C(=O)NN(c3ccc(Cl)cc3)C2=O)ccc1OC(=O)c1ccco1	.	.	.	i	0.1	3.5	6	0.6	0.67	-1
Cc1cc(C)n2nc(C(=O)OCC(=O)Nc3ccc(C)c(S(=O)(=O)N(C)C)c3)nc2n1	1	6	-0.3	i	0.4	0.2	.	-0.4	0.73	2
CCC(=O)N(CCc1ccc(S(N)(=O)=O)cc1)C1CC(=O)N(c2ccc(OC)cc2)C1=O (centres undefined)	6	9	-5.1	i	1.4	4.8	-7	1.3	0.73	-4
CC(=O)c1ccccc1N(C(=O)Cn1nnc2ccccc21)C(C(=O)NCC1CCCO1)c1ccc(N2CCOCC2)cc1 (centres undefined)	7	10	-1.3	i	-1.1	4.6	3	-0.6	0.71	11

(continued)
SMILES	Ecoli rRNA inh	Ecoli rRNA inh OD600	Ecoli rRNA inh RFP	FGF22 binding	A1 inh	UCH37 DUB inh	T cruzi inh	AF4-AF9 inh	Ecoli growth	Beta apoptosis
Cc1ncc([N+](=O)[O-])n1CCOC(=O)c1ccc(Br)cc1	-8	-20	17	i	-0.6	3.8	-16	-2.6	0.7	-4
CC(C)(C)c1ccc(C(=O)Nc2ccc(S(N)(=O)=O)cc2)cc1	-2	-6	-1.8	i	-0.2	.	-15	-3.2	.	2
O=c1[nH]ncn1-c1ccccc1	16	6	1.1	i	0.1	1.5	-6	-2.4	0.69	-5
CN1c2ccc(Cl)cc2C(=O)NC1C1CC=CCC1 (centres undefined)	-23*	-12*	-4.0*	i	-0.1	-210	2	-3.5	0.65	14
O=C(Nc1nncs1)Oc1ccccc1	.	.	.	.	1.1	0.5	6	.	0.67	-2
CCOC(=O)CCN(C(=S)Nc1ccccc1)C1CCCCC1	6	4	1.0	i	.	-0.3	.	0.1	0.68	.
O=C(COC(=O)c1n[nH]c2ccccc12)NC1CCCCC1	-8	-13	1.0	i	-0.5	0.7	.	6.3	0.7	-4
CC(=O)c1ccc(NC(=S)Nc2cccc(Cl)c2C)cc1	-15	-12	-5.9	i	0.3	7.5	-20	1.2	0.66	-4
CCOc1ccccc1NC(=O)COC(=O)c1cc(C)oc1C	-5	4	-1.4	i	-1.1	-1.8	.	1.6	0.74	-1
COC(=O)CSc1nc(C)cc(Oc2ccccc2)n1	6	9	-0.3	i	0.0	2.6	-14	1.2	0.71	-4
CC(=O)Nc1cccc(-c2nc3ccccc3o2)c1	5	9	2.8	i	-0.5	1.2	-6	-10	0.66	-9
Cc1ccc(C(=O)CNc2ccccc2C)cc1	8	6	1.3	i	-1.0	0.8	-3	1.2	0.67	3
Cc1ccccc1C(=O)NC(=S)NCC(=O)c1ccccc1	.	.	.	.	-0.4	0.8	1	.	0.74	.
Cc1ccc(CC2CC(=O)N(c3ccc4c(c3)OCCO4)C2=O)cc1 (centres undefined)	.	.	.	.	-0.3	3.5	0	.	0.77	-1
CC(CCc1ccco1)NC(=O)CCc1nnc2ccc(NCc3ccc(Cl)cc3)nn12 (centres undefined)	-2	-2	2.8	i	0.6	-1.1	12	0.9	0.68	-1
CC(=O)CSc1nc2c(c(=O)[nH]c(=O)n2C)n1Cc1cccc(Br)c1	3	7	-5.1	i	-1.3	2.8	-8	-1.4	0.65	-4
CCOc1ncccc1C(=O)OCC(=O)N(CC)c1ccccc1	2	-2	-0.6	i	0.0	-1.7	-5	-2.2	0.7	-4
O=C(O)c1ccc2c(c1)C(=O)/C(=C/c1ccccc1)C2=O	.	.	.	i	-1.3	22*	3	-3.9	0.7	-1
Cc1ccc(S(=O)(=O)N2CCOCC2)cc1C(=O)OCC(=O)NC1CCCC(C)C1C (centres undefined)	.	.	.	i	0.5	1.1	.	-0.2	0.68	5
O=C1CC(C(=O)N2CCN(c3ccccc3)CC2)CN1Cc1ccccc1 (centres undefined)	-1	6	2.5	i	1.1	2.5	.	2.8	0.66	-3
COc1ccc(S(=O)(=O)N2CCN(C(=O)c3sccc3-c3ccccc3)CC2)cc1	-4	-29	1.9	i	0.8	0.5	16	4.9	0.7	3
COc1ccc(C)c2sc(NC(=O)CCS(=O)(=O)c3ccccc3)nc12	-31*	-24*	-3.5*	i	-0.4	5.2	3	5.3	0.69	4
CCOc1ccc(NC(=O)CCn2cccc2)cc1	.	.	.	.	0.1	0.1	5	.	0.67	-5
Cc1ccc(N(CC(=O)NCc2ccco2)C(=O)CCC(=O)Nc2ccccn2)c(C)c1	0	1	2.3	i	-1.1	2.2	-11	-24	0.69	-5
